Bioassay records: PubChem, National Center for Advancing Translational Sciences (NCATS)
HPGD inh = inhibitors of human 15-hydroxyprostaglandin dehydrogenase (HPGD); purified HPGD, NADH fluorescence kinetic, PGE2 substrate; Potency, µM, without a hit: at the top dose activity change, negative = inhibition, hits mostly inhibitors; 4.3% of 150,000 active; active = well fitted inhibition curve with a large enough effect (not every such curve was filed as active); inconclusive = small, poorly fitted or top-dose-only effect, or another doubt; inactive = no such curve, though single readings can be large or run the other way;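 also: top concentration of the series not given in the record; plate controls included wells without enzyme; inactives centre near -10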
Target sequence (P15428 whole entry, looked up): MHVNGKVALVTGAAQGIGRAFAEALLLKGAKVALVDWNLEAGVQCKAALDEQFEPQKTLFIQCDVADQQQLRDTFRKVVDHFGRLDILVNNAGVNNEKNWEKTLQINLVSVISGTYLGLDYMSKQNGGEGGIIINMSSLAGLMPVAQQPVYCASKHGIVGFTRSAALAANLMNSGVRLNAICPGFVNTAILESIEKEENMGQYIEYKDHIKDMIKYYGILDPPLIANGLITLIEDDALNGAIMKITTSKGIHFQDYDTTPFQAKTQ
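20 nM HPGD preincubated 15 min at room temperature with compound in 50 mM Tris-HCl pH 8, 0.01% Tween 20. Started with 1 mM NAD+ and 30 uM prostaglandin E2; NADH fluorescence (360/450 nm) read 5 times over 30-s intervals, last minus first.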
The depositor's hits bear a star; ? = inconclusive; & = joins results of further samples; [ ] = dose if it differs, or a comment. % is scaled to controls: 0 for no effect and ±100 for the full control effect; potency is read from the fitted curve at half-maximal effect.

SMILES	HPGD inh
Cc1cccc(NC(=O)NCC(c2cccnc2)N2CCOCC2)c1 (configuration not stated)	-10%
O=C(Nn1c(=S)[nH]c2ccccc2c1=O)c1ccncc1	-10%
O=C(Nc1ccncc1)Nc1ccc(F)cc1F	-16%
CCC(C)NC(=O)c1n[nH]c(=O)c2ccccc12 (configuration not stated)	3%
COC(=O)c1c(C(=O)OC)c(-c2ccc(C)cc2)n2c1CS(=O)C2 (configuration not stated)	-6%
Cc1ccc(-c2nn3nnnc3c3ccccc23)cc1C	-13%
Cc1ccc(S(=O)(=O)Oc2ccc(C3C4=C(CCCC4=O)OC4=C3C(=O)CCC4)cc2)cc1	-23%
Cc1ccc(-c2nnn(CC(=O)N(Cc3cccs3)C(C(=O)NC3CCCC3)c3ccco3)n2)o1 (configuration not stated)	-14%
COc1ccc(/C=C/C(=O)NCc2cnn(C)c2C)cc1COc1ccc(Br)cc1	-18%
CCOC(=O)c1cnc(SCc2cccc3ccccc23)nc1N	28µM*
CCc1ccc(CCC(=O)Nc2ccc(S(N)(=O)=O)cc2)o1	-10%
Cc1ccnc(NS(=O)(=O)c2ccc(NC(=O)c3ccc(S(=O)(=O)N4CCOCC4)cc3)cc2)n1	-2%
CCOC(=O)C1C(C)=CC(=O)CC1c1ccco1 (configuration not stated)	-8%
Cc1cc(C)c2c(c1)/C(=N/NS(=O)(=O)c1ccc(Br)cc1)CCC2	-12%
O=C(COc1cccc(Cl)c1Cl)Nc1ccc2c(c1)CCC2	-11%
O=C(NCC(=O)N(c1ccc2c(c1)OCO2)C(C(=O)NC1CCCC1)c1ccncc1)c1ccco1 (configuration not stated)	3%
Cc1ccsc1C(=O)Nc1ccc(F)c([N+](=O)[O-])c1	-18%
CC(=O)N1C(C(=O)O)CSC1c1cccc(C)c1 (configuration not stated)	-4%
CCCCN1C(=O)C(NC(C)=O)c2cc(Br)ccc21 (configuration not stated)	-10%
CCOc1ccc(CCNC(=O)C2CCC(=O)N2CCc2ccccc2)cc1OCC (configuration not stated)	-11%
COCCOC(=O)C1=C(C)NC(=O)NC1c1ccc(OC(=O)c2ccco2)c(OC)c1 (configuration not stated)	-3%
O=C(COC(=O)Cc1ccccc1F)Nc1ccc2c(c1)OCCO2	?
Cc1nn(C)cc1/C=C/C(=O)c1cccs1	?
Cc1ccc(-c2nc(CS(=O)(=O)CC(=O)NCCCN3CCN(C)CC3)c(C)o2)cc1	-15%
CCOC(=O)C(=CNc1cc(C)nn1-c1ccccc1)C(=O)OCC	-7%
COc1ccc(C(=O)n2nc(-c3ccc(OC)cc3)nc2N)cc1	-19%
Cc1nn(-c2cc(C(F)(F)F)ccc2Cl)c2nc(C(F)(F)F)[nH]c(=O)c12	-9%
CC(C)(C)c1ccc(C(=O)NCc2cccnc2)cc1	-21%
COc1cccc(/C=C/C(=O)c2c(O)cc(C)oc2=O)c1O	-18%
Cc1sc2nc(SCc3nc4ccccc4[nH]3)n(Cc3ccco3)c(=O)c2c1C	-24%
O=C(CCCCCn1c(=S)[nH]c2ccc(N3CCOCC3)cc2c1=O)NCc1ccccc1	-16%
Cc1cccc(C2=NN(c3ccccc3)[C@H](CO)[C@H]2c2ccccc2)c1	?
Nc1c(S(=O)(=O)c2cccs2)c2nc3ccccc3nc2n1CCc1ccccc1	?
COc1ccc(NS(=O)(=O)c2coc(C(N)=O)c2)cc1Cl	-4%
Cc1nc2ncnn2c(C)c1CCC(=O)N1CC(C)CC(C)C1 (configuration not stated)	2%
CC1CCN(CC(C)CNC(=O)c2cc(-c3ccccn3)nc3ccccc23)CC1 (configuration not stated)	-5%

Arranged by count of non-hydrogen atoms (low to high): some entries from above.
SMILES	HPGD inh
Cc1cccc(NC(=O)NCC(c2cccnc2)N2CCOCC2)c1 (configuration not stated)	-10%
COc1ccc(/C=C/C(=O)NCc2cnn(C)c2C)cc1COc1ccc(Br)cc1	-18%
Cc1ccc(S(=O)(=O)Oc2ccc(C3C4=C(CCCC4=O)OC4=C3C(=O)CCC4)cc2)cc1	-23%

Following part:
SMILES	HPGD inh
CC(=O)Nc1ccc2nc(-c3ccccc3)cn2c1	?
COc1cc(OC)cc(C(=O)NCc2n[nH]c(=S)n2-c2ccccc2OC)c1	?
O=S(=O)(NCc1ccccc1)c1cccc2nonc12	-3%
CCc1nnc(NS(=O)(=O)c2ccc(N=Cc3c(C)[nH]n(-c4cccc(Cl)c4)c3=O)cc2)s1	13µM*
CCCC(N)CCCCCC(=O)O (configuration not stated)	-6%
S=C(NCC1CCCO1)Nc1ccccc1Cl (configuration not stated)	13µM*
CC1(C)Oc2ccc3ccc(=O)oc3c2-c2cn[nH]c21	-14%
Fc1ccc(/C=N/Nc2ccccn2)cc1	-8%
Cc1ccc(-c2nnn(CC(=O)N(CC(=O)NCc3ccccc3)c3cccc(C)c3C)n2)o1	25µM*
CCOC(=O)c1oc2ccccc2c1CSc1nnnn1-c1ccc(OC)cc1	1%
O=C(COc1ccc(Cl)cc1)Nc1ccc(C(=O)NCc2cccnc2)cc1	-12%
CC1(C)SC2[C@H](NC(=O)C(NC(=O)N3CCNC3=O)c3ccccc3)C(=O)N2C1C(=O)O (some centres not stated)	-11%
CCCNC(=O)N1CCC(C(=O)c2ccc(Cl)cc2)CC1	-11%
N#Cc1cccc(NC(=O)Cn2c3[n+](c4ccc(C(F)(F)F)cc42)CCCCC3)c1	-9%
O=C1NCCCC1C(=O)N/N=C/c1ccccc1 (configuration not stated)	-14%
Cc1sc2nc(SCC(=O)N(C)C)[nH]c(=O)c2c1C	-29%
Cc1ccc2cc3cc(C(=O)NCc4ccc5c(c4)OCO5)oc3nc2c1	?
COc1ccc(NC(=O)CN2C(=O)CSC(C)C2=O)c(OC)c1 (configuration not stated)	-6%
COc1cc(NS(=O)(=O)c2ccccc2)ccc1-n1nc(C)cc1C	-4%
COc1cccc(Cn2c(-c3cccs3)noc2=O)c1	-18%
Cc1ccc2cc(C(c3nnnn3Cc3ccccc3)N3CCN(c4ccccc4)CC3)c(=O)[nH]c2c1 (configuration not stated)	-9%
CC1=CCC2C(=O)N(c3ccc(C)c(Br)c3)C(=O)C2C1 (configuration not stated)	-11%
O=C(c1ccc(Br)s1)N1CCN(c2ncccn2)CC1	-7%
COc1ccccc1/C=N/NC(=O)c1ccc(NC(=O)c2ccccc2Br)cc1	?
C=CCNC(=S)NNC(=O)c1ccc(OCC(C)C)cc1	-3%
Cc1cc(-c2nnc3n2N=C(C(C)(C)C)CS3)n[nH]1	-8%
O=C(CN1CCOCC1)Nc1ncc(Cc2cccc(Cl)c2)s1	-12%
O=C(CCN1C(=O)CSC1=O)Nc1ccccc1	-3%
Cn1c(=O)c2c(ncn2CC(O)CO)n(C)c1=O (configuration not stated)	2%&-3%
CCOc1nnc(C)c2c(C)n(-c3cccc(OC)c3)nc12	-7%
Cc1ccc(S(=O)(=O)N(C)c2c(C)ccc(S(=O)(=O)Nc3ccncc3)c2C)cc1	-10%
CCOC(=O)C(CCCCCOc1ccc([N+](=O)[O-])cc1)C(=O)OCC	-22%
CCOC(=O)C=Nc1c(N)n(C)c(=O)n(C)c1=O	54%[activator]
O=C(NCc1ccccc1Cl)c1cccc(NC(=O)c2ccccc2)c1	-17%
COc1ccc(F)cc1S(=O)(=O)Nc1ccc2c(c1)OCO2	1%
COc1cccc(NC(=O)N2CCN(c3cccc(C)c3)C(C)C2)c1 (configuration not stated)	-8%
CCOC(=O)C(C)n1nc(/C=C/c2ccccc2)ccc1=O (configuration not stated)	?
O=c1cc(NCCCO)c2ccccc2o1	-16%
O=C(CSCc1ccc([N+](=O)[O-])cc1)Nc1cccc(C(=O)Nc2ccccc2C(=O)O)c1	-22%
Cc1ccc(C(=O)C(NC(=O)c2ccco2)Nc2sc3c(c2C(N)=O)CCCC3)cc1 (configuration not stated)	-12%
CC(=O)Nc1nc2ccccc2n1CCOc1ccccc1Cl	?
COc1ccccc1CNC(=O)CCS(=O)(=O)c1ccc2c(c1)CCCN2C(C)=O	-10%
C/C(CC(=O)Nc1cccc(Cl)c1C)=N\NC(=O)C(=O)NCC(C)C	-5%
CC(NC(=O)NC12CC3CC(CC(C3)C1)C2)C1CCCO1 (configuration not stated)	-14%
COc1ccc(-c2cc3nc(C)cc(N4CC(C)CC(C)C4)n3n2)cc1 (configuration not stated)	?
CSc1nnc(C)c(=O)n1COC(=O)COc1ccc2ccccc2c1	-3%
CN(CC(=O)Nc1ccc(C#N)cc1)Cc1ccc(Cl)cc1Cl	-1%
C=Cc1cccc(NC(=O)COc2ccccc2)c1	-26%

Entries shown so far with fluorine, in the order listed:
SMILES	HPGD inh
O=C(Nc1ccncc1)Nc1ccc(F)cc1F	-16%
Cc1ccsc1C(=O)Nc1ccc(F)c([N+](=O)[O-])c1	-18%
O=C(COC(=O)Cc1ccccc1F)Nc1ccc2c(c1)OCCO2	?
Cc1nn(-c2cc(C(F)(F)F)ccc2Cl)c2nc(C(F)(F)F)[nH]c(=O)c12	-9%
Fc1ccc(/C=N/Nc2ccccn2)cc1	-8%
N#Cc1cccc(NC(=O)Cn2c3[n+](c4ccc(C(F)(F)F)cc42)CCCCC3)c1	-9%
COc1ccc(F)cc1S(=O)(=O)Nc1ccc2c(c1)OCO2	1%

(further entries)
SMILES	HPGD inh
CC(c1ccco1)N(Cc1ccco1)C(=O)Nc1ccccc1 (configuration not stated)	-11%
CCOc1cc(CNCc2ccccn2)ccc1OCC(=O)NC(C)(C)C	-9%
Cc1ccc2cccc(S(=O)(=O)N3CCN(c4ccccc4F)CC3)c2n1	-16%
O=C(Cn1nnc(-c2ccccc2)n1)NCc1ccco1	-14%
O=c1c2ccccc2cnn1Cc1n[nH]c(=S)n1-c1ccccc1Cl	?
C=CCn1c(CNC(=O)c2ccco2)nnc1SCC(=O)Nc1cccc(Br)c1	-4%
CN1CCN(CCOc2ccc(Cl)c(Cl)c2)CC1	-3%
Cc1nc2ccc(S(=O)(=O)NC(CC(C)C)C(=O)O)cc2s1 (configuration not stated)	-7%
COc1nc(OCCNC(=O)Nc2ccccc2)nc(N(C)C)n1	-14%
Cc1ccc(S(=O)(=O)CC(O)CN2CCCC2=O)cc1 (configuration not stated)	-3%
CCC1CCc2c(sc(NC(=O)CSc3nc(-c4ccco4)cc(C(F)(F)F)n3)c2C#N)C1 (configuration not stated)	?
CC(C)(C)Nc1nc2nonc2nc1NC(C)(C)C	-8%
C/C=C(/CC[C@@H](C)[C@H]1CCC2C3=CC[C@H]4[C@H](C)[C@@H](O)CC[C@]4(C)C3CC[C@@]21C)C(C)C (some centres not stated)	-12%
Cc1c(N)cccc1[N+](=O)[O-]	-3%
Cc1nc2nc(CCc3ccccc3)nn2c(C)c1Cl	0%
Cc1ccc(S(=O)(=O)N2CCC(C(N)=O)CC2)c(C)c1C	-14%
Cc1ccc(N2CC(C(=O)NCc3cccs3)CC2=O)cc1C (configuration not stated)	-7%
Nc1ccccc1-c1nnc(-c2ccc(-c3ccccc3)cc2)o1	?
C=C(Cl)COc1ccc2c(CCC)cc(=O)oc2c1	?
Cc1ccc(CON=C2CCN(c3ncc(C(F)(F)F)cc3Cl)CC2)cc1	-3%
C/C(=C\c1ccccc1)CN1CCN(c2ccccc2F)CC1	4%
Cc1ccc(NC(=O)CN(C)CC(=O)Nc2ccc(N3CCOCC3)cc2)c([N+](=O)[O-])c1	-15%
CCN(CCNC(=O)c1cc(C)nn1-c1ccccc1)c1ccccc1	-8%
CN1CCN(C(=O)c2ccc3c(=O)n(Cc4ccco4)c(=S)[nH]c3c2)CC1	-13%

Fetched by compound from the list above, two records:
SMILES	HPGD inh
Cc1c(N)cccc1[N+](=O)[O-]	-3%
CN1CCN(C(=O)c2ccc3c(=O)n(Cc4ccco4)c(=S)[nH]c3c2)CC1	-13%

Next part
SMILES	HPGD inh
Cc1ccc(C)c(NC(=O)CCC(=O)NNC(=O)c2cccs2)c1	-10%
Cc1cc(-c2csc(NC(=O)c3ccc(S(=O)(=O)N(C)C)cc3)n2)c(C)n1-c1ccccc1	-5%
CN1CCN(NC(=O)CN2C(=O)/C(=C/c3ccccc3F)SC2=S)CC1	-16%
COC(=O)c1ccc(N2CCN(S(=O)(=O)c3c(C)cc(C)cc3C)CC2)c([N+](=O)[O-])c1	-12%
Cc1noc(C)c1S(=O)(=O)N1CCC2(CC1)OCCO2	-7%
CC1=NNC(=O)/C1=C\c1cn(-c2ccccc2)nc1-c1cccs1	16µM*
CCc1cccc(C)c1NC(=O)CO/N=C(\C)c1cc2ccccc2o1	-11%
Cc1ccc(/C=C2\SC(N)=NC2=O)s1	-23%
CCOC(=O)/C(=C\c1ccc(OC(F)F)cc1)C1=Nn2c(nnc2-c2ccc(Cl)cc2)SC1	14µM*
Nc1ccc(-c2nc3ccccc3[nH]2)cc1	?
CCn1c(SCc2nc(-c3cccs3)no2)nnc1-c1c[nH]c2ccccc12	-9%
Cc1nn(-c2ccccc2)c2sc(C(=O)OCn3nnc4ccccc4c3=O)cc12	?
Brc1cccc(-c2nnc(SCc3nc4ccccc4[nH]3)o2)c1	-14%
CCn1c(=O)cc(SCC(=O)Nc2ccc3c(c2)OCCO3)c2ccccc21	?
CCc1cc2c(N[C@@H](Cc3c[nH]c4ccccc34)C(=O)O)ncnc2s1	-13%
CCOc1ccc(C(=O)N/N=C/c2ccc(-c3ccc(S(=O)(=O)Nc4ncccn4)cc3)o2)cc1	?
O=c1[nH]c(NNC(=S)NCc2ccccc2)nc2c1C1(CCCCC1)Cc1ccccc1-2	?
O=C(COC(=O)C1(c2ccc(F)cc2)CCCC1)NC1CC1	-2%
COC(=O)[C@@H]1C[C@H]2CC[C@H](O)C[C@H]2N1Cc1ccc(C(C)(C)C)cc1	-4%
CCCn1c2ccccc2c2nc3ccccc3nc21	-5%
CC(=O)CSc1nnc(Cc2ccc3c(c2)OCO3)o1	-14%
CCCCC(c1nnnn1CC1CCCO1)N1CCN(c2cccc(C)c2C)CC1 (configuration not stated)	-5%

Not all compounds are listed. The share of hits here may be higher or lower than overall.
